Source: PubChem BioAssay
Vif A3G: inhibitors of Vif binding to APOBEC3G peptide, primary screen, biochemical, TR-FRET, GST-Vif 1-94, biotin-A3G peptide, dose response retest (AID 1117319). TR-FRET GST-Vif / biotin-A3G peptide binding; higher % means a stronger effect; test concentration not given here; strong numbers were not always called active. inhibition, %; hits with a dose series show IC50 in µM. hit rate 0.57% among 260,000;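 active = above the screen mean plus three standard deviations and confirmed in dose response; inconclusive = results disagree or hit not tested in dose response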;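 also: Vif residues 1-94 fused to GST binding biotinylated APOBEC3G peptide 110-148; 0% = full assay without inhibitor and 100% = GST in place of GST-Vif; retest series ran down from 100 µM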
LANA-H2B inh: blockers of LANA interaction with H2A/H2B – biochemical, FP readout, HTS, primary screen | cell-free LANA-H2A/H2B peptide, fluorescence polarization | Protein LANA1 (Human herpesvirus 8 type P (isolate GK18)), Q9QR71 | inhibition, % (test concentration not listed) | hit rate 0.6% among 320,000; in the data active = inhibition mostly above about 10%, no sharp cut-off; inactive = mostly below about 6.7%;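 also: stock transfer was 7.5 nL into about 10 µL; 0% = median of vehicle wells and 100% = median of positive control wells; one replicate is shown; the record names a cut of 25% in any replicate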
Target sequence (Q9QR71 whole entry, looked up): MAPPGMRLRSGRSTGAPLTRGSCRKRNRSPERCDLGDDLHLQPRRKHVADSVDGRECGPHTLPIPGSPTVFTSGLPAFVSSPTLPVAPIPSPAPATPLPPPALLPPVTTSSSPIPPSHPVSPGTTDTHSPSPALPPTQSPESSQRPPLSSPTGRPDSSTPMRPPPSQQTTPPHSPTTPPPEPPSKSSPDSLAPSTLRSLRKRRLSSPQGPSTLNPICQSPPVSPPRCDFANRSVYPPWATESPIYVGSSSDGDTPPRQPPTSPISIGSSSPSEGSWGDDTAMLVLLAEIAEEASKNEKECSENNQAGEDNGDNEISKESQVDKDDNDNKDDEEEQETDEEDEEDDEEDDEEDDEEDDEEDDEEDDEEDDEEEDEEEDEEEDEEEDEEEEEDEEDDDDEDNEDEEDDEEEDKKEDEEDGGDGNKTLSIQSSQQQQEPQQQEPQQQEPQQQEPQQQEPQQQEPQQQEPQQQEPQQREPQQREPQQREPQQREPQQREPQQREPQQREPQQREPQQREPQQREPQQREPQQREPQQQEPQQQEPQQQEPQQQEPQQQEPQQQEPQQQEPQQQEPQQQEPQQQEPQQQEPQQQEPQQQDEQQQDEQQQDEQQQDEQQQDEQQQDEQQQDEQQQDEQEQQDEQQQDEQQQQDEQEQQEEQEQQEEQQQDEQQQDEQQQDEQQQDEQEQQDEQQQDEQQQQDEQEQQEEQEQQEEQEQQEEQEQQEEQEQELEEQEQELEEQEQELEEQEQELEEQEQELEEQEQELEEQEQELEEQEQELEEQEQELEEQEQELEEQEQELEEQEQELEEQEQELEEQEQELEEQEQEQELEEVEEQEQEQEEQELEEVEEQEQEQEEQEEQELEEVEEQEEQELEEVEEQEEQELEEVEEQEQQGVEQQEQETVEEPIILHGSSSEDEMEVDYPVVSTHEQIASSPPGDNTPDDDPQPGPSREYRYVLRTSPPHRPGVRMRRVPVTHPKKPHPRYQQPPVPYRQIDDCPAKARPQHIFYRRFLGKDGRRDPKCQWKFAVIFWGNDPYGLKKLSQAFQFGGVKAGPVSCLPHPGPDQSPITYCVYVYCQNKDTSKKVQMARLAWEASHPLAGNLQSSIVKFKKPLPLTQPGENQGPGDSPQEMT
Beta apoptosis: inhibitors of cytokine-induced beta cell apoptosis, primary screen, luminescence; INS-1E cytokine-induced death, ATP luminescence, 48 h; percent of positive-control rescue, neutral wells zero; protection from apoptosis, % (no concentration beside the values); hit rate 0.8% among 300,000; AID 435005, 2010;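 active = all replicates at 75% or more, or half of them and the mean; inconclusive = half reach 75% but not the mean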;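 also: 0% = cytokine-treated negative control wells and 100% = positive control rescue; higher means more ATP so stronger rescue from cytokine killing; wells of about 40 µL received 100 nL stock; the first replicate is given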
T cruzi repl: inhibitors of intracellular T. cruzi growth, primary screen, luminescence, NIH3T3 host cells; T. cruzi beta-gal in NIH3T3, 90 h; inhibition, % (test concentration not listed); hit rate 1.4% among 300,000; AID 1885, 2009;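 active = mean inhibition across valid replicates above about 55%, limit read from the data; inconclusive = mean below that limit but half or more replicates reach it; inactive = mean below it, under half of replicates reach it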;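 also: signal also drops with host cell toxicity which is not excluded here; 0% = plate median of DMSO wells and 100% = zero luminescence signal; higher percent means less beta-gal luminescence so fewer parasites; stock transfer was 50 nL into about 50 µL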
Calb FLC: C. albicans growth inhibition with fluconazole, primary screen, CaCi-2 strain, Alamar Blue fluorescence; C. albicans CaCi-2 (fluconazole-resistant clinical isolate) + fluconazole, 48 h; hit rate 0.57% among 300,000; growth inhibition, % (test concentration not listed);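 active = most replicates above 75%; inconclusive = exactly half above 75%; inactive = most below 75%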;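 also: all wells also contain fluconazole at 8 µg/ml as a sub-toxic cotreatment; 0% = median of DMSO wells and 100% = median of geldanamycin control wells; wells of about 8 µL received 7.5 nL stock; the first replicate is given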
AF4-AF9 inh: inhibitors of AF4 peptide binding to AF9, primary screen, biochemical, AlphaScreen, biotin-AF4 peptide, FLAG-AF9, single point; inhibition, % at 10 µM; hit rate 0.47% among 350,000; Protein AF-9 (Homo sapiens), P42568;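 active = every replicate reaching a set inhibition limit, whatever the replicate mean, cut at about 25% in these data; inconclusive = mean inhibition reaches that limit but some replicates miss it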;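 also: 0% = plate neutral control median and 100% = total signal loss; the record names both 10 and 1 µM as test concentration; the first replicate is given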
RanGTP-Imp inh: inhibitors of RanGTP-importin-beta interaction, primary screen, biochemical, FRET, CFP-Ran, YFP-importin-beta, homogeneous; Ran GTPase (GTP-bound) - importin-beta complex; cell-free CFP-Ran/YFP-importin-beta FRET ratio; inhibition, % (concentration not given with the values); hit rate 1.1% among 300,000; AID 2216, 2009;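 active = most replicates above 15%; inconclusive = exactly half above 15%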;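 also: 0% = DMSO wells and 100% = Ran loaded with GDP instead of GTP; wells of about 40 µL received 100 nL stock; the first replicate is given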
Bfl-1 A1 inh: caspase 3/7 activation in MEF A1-2A-BIM cells, primary screen, A1 inhibitor project, cell-based, luminescence, HTS. Caspase-Glo 3/7 luminescence, 3 h; percent of clofoctol response, vehicle zero. caspase activation, % (concentration not given with the values). hit rate 0.066% among 330,000;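 active = over half of replicate activation scores above 10%, or exactly half above 10 with the replicate mean above 10; inconclusive = replicate mean below 10 yet half the replicates above 10; inactive = over half of replicates below 10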;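 also: wells of about 30 µL received 50 nL stock; many hits fall short of the cut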
Numbers without * were called inactive; ? = inconclusive; . = not tested or not shown; & = joins results of further samples.

Compound,Vif A3G,LANA-H2B inh,Beta apoptosis,T cruzi repl,Calb FLC,AF4-AF9 inh,RanGTP-Imp inh,Bfl-1 A1 inh
COc1cc(N/N=C/c2ccccc2O)ncn1,.,2.4,88*,-7,44,.,-0.4,-5.2
CN1CCN(C(=O)CCN2C(=O)/C(=C/c3ccc(F)cc3)SC2=S)CC1,.,12*,-50,-30,-22,1.5,3.4,0.2
O=C(NCc1ccco1)C1CCN(c2ccc(S(=O)(=O)N3CCOCC3)cc2[N+](=O)[O-])CC1,2%,0.6,1,13,-13,2.4,-6.7,-0.1
N#CCC(=O)Nc1ccc(C(=O)OCC(=O)c2ccc3c(c2)OCCO3)cc1,15%,-0.9,-5,-3,-8,-0.9,-4.5,-1.8
Cc1ccc(C)c(Nc2nc3ccc(C)cc3n3cnnc23)c1,-8%,-2.3,4,-10,3,-1.7,-4.4,-0.6
Cn1cccc1C(=O)OCC(=O)NC(=O)NC1CCCCC1,-4%,3.0,-7,2,-22,1.2,0.8,-0.1
Cc1cc(=O)n2[nH]c(C)c(-c3ccccc3)c2n1,6%,6.6,-11,-21,13,.,-2.9,0.4
O=C(c1ccco1)N(Cc1cccc(F)c1)C1CCS(=O)(=O)C1 (stereo not given),1%,.,.,-19,4,-0.9,1.3,.
CCN(CC)C(=O)CSCc1cnn(-c2ccccc2)c1-n1cccc1,9%,-1.8,6,2,22,.,-0.9,0.1
Cc1ccc(N(C)S(=O)(=O)c2cccc(C(=O)NCCCN3CCCC3=O)c2)cc1,2%,-4.5,-1,.,.,0.7,.,1.5
O=C(c1cnn2c(C(F)(F)F)cc(-c3ccc(Br)cc3)nc12)N1CCOCC1,0%,.,.,3,-6,.,-2.3,.
O=c1cc(Cl)[nH]c(=O)n1CCNc1ncc(C(F)(F)F)cc1Cl,0%,-8.3,8,-9,39,.,5.8,-3.9
Cc1ccc(/C=c2\sc3nc(-c4cccs4)nn3c2=O)o1,13µM*,0.9,2,-5,0,.,-5.4,0.4
O=C(Nc1ccc(Cl)cc1)c1ccco1,-3%,-5.9,1,-6,-16,0.5,?,-3.9
COCCCNC(=O)Cn1cc(C(=O)C2CC2)c2ccccc21,-2%,-0.2,0,-2,-3,.,8.3,0.5
Cc1ccc(S(=O)(=O)NCC(=O)OCC(=O)N2C(C)CCCC2C)cc1 (stereo not given),3%,13,-3,.,.,-0.5,.,-0.1
CC(C)c1ccc(NC(=O)CSc2n[nH]c(=O)n2C2CC2)cc1,.,-3.3,5,-4,4,0.4,-1.0,0.2
O=C(CSc1nnnn1-c1ccc(Cl)c(C(=O)O)c1)NC(c1ccccc1)c1ccccc1,0%,-0.4,-9,8,-2,-3.1,2.0,-0.4
CCOC(=O)c1c(NC(=O)CN2CCC(C)CC2)sc(C)c1C,10%,-1.8,5,42,-12,-2.7,-0.8,1.0
Cc1cc(C)c(C)c(S(=O)(=O)N2CCN(CC(=O)NC(=O)NCc3ccccc3)CC2)c1C,-2%&-6%,0.3,-7,34,2,.,2.8,0.1

Part of the list above in order of formula weight, largest number first:
Compound,Vif A3G,LANA-H2B inh,Beta apoptosis,T cruzi repl,Calb FLC,AF4-AF9 inh,RanGTP-Imp inh,Bfl-1 A1 inh
O=C(CSc1nnnn1-c1ccc(Cl)c(C(=O)O)c1)NC(c1ccccc1)c1ccccc1,0%,-0.4,-9,8,-2,-3.1,2.0,-0.4
COCCCNC(=O)Cn1cc(C(=O)C2CC2)c2ccccc21,-2%,-0.2,0,-2,-3,.,8.3,0.5
O=C(Nc1ccc(Cl)cc1)c1ccco1,-3%,-5.9,1,-6,-16,0.5,?,-3.9

Other records:
Compound,Vif A3G,LANA-H2B inh,Beta apoptosis,T cruzi repl,Calb FLC,AF4-AF9 inh,RanGTP-Imp inh,Bfl-1 A1 inh
CCc1ccc(-c2cc(C(F)(F)F)n3nc(C(=O)Nc4c(C)nn(Cc5ccccc5Cl)c4C)cc3n2)s1,-17%,-3.0,19,12,3,.,?,0.6
O=C(CNC(=O)c1ccc(OC(F)F)cc1)NC1CCCc2ccccc21 (stereo not given),-6%,2.9,2,6,-12,-2.3,2.3,-0.4
CCC(=O)c1ccc(N2CCN(C(=O)c3ccccc3Br)CC2)c(F)c1,.,1.2,1,2,-1,-3.4,-0.5,0.0
CC(=O)NO,.,3.2,-2,-11,.,.,2.2,0.4
CC1(C)CC(=O)C(C=Nc2ccccc2C(=O)O)=C(O)C1,2%,2.1,-2,-1,10,-4.5,-0.9,0.1
CCCNC(=O)C(Cc1ccccc1)NC(=O)c1ccc(C(F)(F)F)cc1 (stereo not given),.,-3.8,-1,.,.,-6.6,.,-0.1
N#Cc1ccc2c(c1)NC(=O)C1CCCN21 (stereo not given),10%,6.4,1,-12,-3,-1.8,-11,0.6
C[C@@H](NC(=O)c1nc[nH]c1C(=O)N(C)Cc1ccccc1)c1ccccc1,.,-0.3,-4,.,.,4.3,.,0.6
O=C(N/N=C1\CC(c2ccccc2)Oc2ccccc21)c1ccccn1 (stereo not given),-3%,-3.1,2,1,24,-1.3,2.3,-0.6
COc1ccc(C2C(C(=O)NCc3ccco3)c3ccccc3C(=O)N2C)cc1 (stereo not given),-5%,3.0,-3,-11,4,0.2,2.0,0.0
Nc1nonc1-n1nnc(C(=O)N/N=C\c2ccncc2)c1CN1CCCCC1,-3%,-2.8,-9,-15,-1,-2.2,-1.9,0.2
Cc1cc(-c2ccc(Cl)s2)n[nH]1,-3%,2.5,-2,5,-7,.,-0.1,-0.3
CCc1nc(NC(C)C)c2oc3ccccc3c2n1,12%,2.6,11,-11,5,.,1.0,-0.4
CN(Cc1nc2c(s1)CCCC2)C(=O)CCc1nnc(-c2ccccc2)o1,0%,-3.2,7,-1,-26,-0.7,6.8,0.5
CN(Cc1cccc(F)c1)C(=O)c1ccc(S(=O)(=O)N2CCOCC2)cc1,.,-8.1,0,.,.,-1.5,.,-0.1
CC1CC(C)(C)CC2(C1)NC(=O)N(CC(=O)Nc1cc([N+](=O)[O-])ccc1F)C2=O (stereo not given),-4%,-3.1,-4,.,.,3.7,.,-0.3
Cc1ccc(-c2nc3cnccn3c2Nc2c(C)cccc2C)o1,10%,-2.2,-4,-31,14,-0.8,47*,0.2
O=C(C1CCN(S(=O)(=O)c2cccc3cccnc23)CC1)N1CCn2c1nc1ccccc12,1%,-2.9,-3,42,-9,11,-3.6,0.3
CN(CCCNC(=O)CCC(=O)N1CCOc2ccc(Cl)cc21)Cc1ccccc1,.,5.9,0,30,0,-6.8,?,0.0
COc1ccc(-n2c(-c3ccc(Cl)cc3)c[nH]c2=S)cc1,-31%,2.4,0,-3,-9,-0.2,1.4,-1.4

Some values from the results shown.
For LANA-H2B inh, CC1CC(C)(C)CC2(C1)NC(=O)N(CC(=O)Nc1cc([N+](=O)[O-])ccc1F)C2=O (stereo not given) is listed with -3.1
For RanGTP-Imp inh, Cc1cc(-c2ccc(Cl)s2)n[nH]1 is listed with -0.1
For Vif A3G, Nc1nonc1-n1nnc(C(=O)N/N=C\c2ccncc2)c1CN1CCCCC1 is listed with -3%
For T cruzi repl, CN(CCCNC(=O)CCC(=O)N1CCOc2ccc(Cl)cc21)Cc1ccccc1 is listed with 30

The list continues:
Compound,Vif A3G,LANA-H2B inh,Beta apoptosis,T cruzi repl,Calb FLC,AF4-AF9 inh,RanGTP-Imp inh,Bfl-1 A1 inh
C=CCN(C)CC/C=C1\c2ccccc2CSc2ccccc21,-2%,0.4,8,19,-1,.,6.9,-0.3
Cc1c(Cc2ccccc2)c(=O)oc2cc(OC(C)C(=O)NCC3CCC(C(=O)O)CC3)c(Cl)cc12 (stereo not given),.,1.1,-4,-18,-1,-0.2,0.4,-0.7
COc1cc(C(=O)O/N=C2\CCCc3c2ccc(OC)c3[N+](=O)[O-])cc(OC)c1OC,1%,-5.0,-5,0,-16,.,1.1,-1.0
CCCCn1c(N)c(N(CCOC)C(=O)c2ccc3c(c2)C(=O)N(c2ccccc2C)C3=O)c(=O)[nH]c1=O,-16%,1.9,-2,10,-3,0.9,?,0.6
CCCCCCn1c(CN2CCN(C)CC2)nc2c1c(=O)n(C)c(=O)n2C,-6%,-8.6,-9,10,-1,-7.5,4.1,-0.7
Cc1cc(OC(C)C(=O)NC(Cc2c[nH]c3ccc(O)cc23)C(=O)O)c2c(C)cc(=O)oc2c1 (stereo not given),.,0.4,-5,2,1,-0.7,-1.8,0.3
S=c1[nH]nc(-c2cccc(Br)c2)o1,-30%,-1.3,0,1,11,.,-1.5,?
COc1ccc(N2CCN(C(=O)CNC(=O)c3ccc(C(C)(C)C)cc3)CC2)cc1,0%&12%,1.8,-1,-21,7,.,-2.9,?
CCOC(=O)CN1C(=O)CSc2ccccc21,6%,-4.4,-1,-11,-26,2.1,-1.9,-0.1
O=C1C(Cc2c[nH]c3ccccc23)NC(=S)N1Cc1ccccc1 (stereo not given),15%,-16,-1,-10,10,6.5,?,0.2
O=C(NCc1cccnc1)/C(=C\c1ccc(-c2cccc(Cl)c2)o1)S(=O)(=O)c1ccccc1,-3%,.,104*,36,0,.,5.9,0.0
CCn1cnc2cc(NC(=O)c3cccs3)ccc21,-1%,2.2,7,-4,1,-3.8,-8.6,-2.3
COc1ccc(-n2nc([N+](=O)[O-])c(=NCCc3ccc(OC)c(OC)c3)n2O)cc1,.,-0.9,5,50,13,.,4.3,-0.1
Cc1ccccc1CSc1nc2ccccc2c(=O)n1C,-11%,0.6,15,.,.,1.0,.,1.5
Nc1nnc(SCC(=O)N2CCN(Cc3ccccc3)CC2)s1,3%,1.8,-4,1,-7,.,-2.5,0.9
O=C(c1cccs1)N1CCN(c2ccc([N+](=O)[O-])cc2F)CC1,0%,-1.6,-1,-22,3,8.8,1.0,0.4
Cc1ccc(NC(=S)NNC(=O)Nc2ccccc2)cc1,15%,-0.6,0,-11,-15,0.1,-0.6,-0.2
CN(C)c1ccc(C(=O)OCC(=O)c2ccc[nH]2)cc1,12%,2.2,2,.,.,-5.5,.,-7.2
CCOc1c(N2CCCCC2)c(=O)c1=O,2%,-0.4,-8,-12,-15,.,0.6,-0.5
CCOc1ccc(CN(C)C(C)C(=O)Nc2ccc([N+](=O)[O-])cc2Cl)cc1OC (stereo not given),.,-1.5,-8,37,-4,11,-2.5,-0.1

Whole records from above. Order of values: Vif A3G	LANA-H2B inh	Beta apoptosis	T cruzi repl	Calb FLC	AF4-AF9 inh	RanGTP-Imp inh	Bfl-1 A1 inh
O=C(c1cccs1)N1CCN(c2ccc([N+](=O)[O-])cc2F)CC1 across the screens: 0%	-1.6	-1	-22	3	8.8	1.0	0.4
CCn1cnc2cc(NC(=O)c3cccs3)ccc21 across the screens: -1%	2.2	7	-4	1	-3.8	-8.6	-2.3
